Vaccinia mCherry: inhibitors of vaccinia virus infection (mCherry reporter signal) | Vaccinia virus mCherry reporter infection, fluorescence; about a quarter of the inactives have no number | Potency, µM (doses to about 36.5 µM), for the others: at the top dose activity change, negative = inhibition, usual class: inhibitors | hit rate 0.63% among 310,000 | AID 720579; active = well fitted inhibition curve with a large enough effect; inconclusive = small, poorly fitted or top-dose-only effect; inactive = no such curve, though single readings can be large or run the other way; tested in A549 cells; further: nearly all actives have a fitted effect of over 35% in size; inactives centre near -10
VACV Venus inh: inhibitors of vaccinia virus (Venus reporter). hit rate 0.46% among 330,000. Potency, µM (highest dose often 36.5 µM), for inactives: at the highest dose activity change, negative = inhibition, most hits filed as inhibitors. AID 720580. Vaccinia virus Venus reporter expression, fluorescence; active means well fitted inhibition curve with a large enough effect; inconclusive means small, poorly fitted or top-dose-only effect; inactive means no such curve, though single readings can be large or run the other way; tested in A549 cells; further: nearly all actives have a fitted effect of over 30% in size; inactives centre near -10
The depositor's hits bear a star; i = inactive; ? = inconclusive; / = not tested or not shown; & = joins results of further samples; [ ] = remark or other dose. On the % scale 0 is the no-effect control and ±100 the full control effect; potency means the concentration at half of the fitted maximal effect.

cpd | smiles | Vaccinia mCherry | VACV Venus inh
1 | COc1ccc(C2=NOC(C(=O)Nc3ccc4c(c3)OCO4)C2)cc1OC (stereo not drawn) | -13.6% | -2.6%
2 | CC(=O)N1CCC(C(=O)Nc2cc(S(=O)(=O)N3CCCCC3)ccc2C)CC1 | -23.2% | -17.3%
3 | O=S(=O)(c1ccc(Br)cc1)c1nnn2c1nc(NCc1cccs1)c1sccc12 | -20.1% | -29.2%
4 | CC(/C=N/NC(=O)Cn1cnc2c1c(=O)n(C)c(=O)n2C)=C\c1ccccc1 | -11.4% | -6.8%
5 | O=C(CNC(=O)c1ccco1)N/N=C/c1cc(Br)ccc1O | ? | ?
6 | Cc1ccc(-c2nnn(CC(=O)NC3CC4CCC3C4)n2)cc1 (stereo not drawn) | -13.4% | -13.2%
7 | COc1cccc(C(=O)N2CCN=C2SCc2cccnc2)c1OC | 6.9% | -9.3%
8 | COc1ccc([C@@H]2C[C@H]3[C@@H](CN2S(=O)(=O)c2ccccc2)C(=O)C[C@@H](c2ccc(C)cc2)N3S(=O)(=O)c2ccc(C)cc2)cc1 | i | -8.7%
9 | Cc1c(C(=O)NCc2cccc(C(F)(F)F)c2)sc(=O)n1Cc1ccc(C(=O)N(C)C)cc1 | i | -13.6%
10 | Cc1ccc(Cc2c(-c3ccc(F)cc3)nc3c(C)cc(Br)cn23)cc1 | 11.8% | -14.7%
11 | O=C1CCc2cc(S(=O)(=O)N3CCCC3C(=O)NC3CCCCCCC3)ccc2N1 (stereo not drawn) | ? | -20.1%
12 | Cn1c(Cn2c(=O)sc3ccccc32)nnc1SCC(=O)NCc1ccccc1Cl | 1.2% | -1.0%
13 | CCC(C)(C(=O)Nc1ccc(OC)cc1)N(C)C(=O)Cn1nnnc1N (stereo not drawn) | -13.3% | -6.1%
14 | O=C(Nc1nnc(SCC(=O)N2CCCCC2)s1)c1ccccc1F | i | 0.0%
15 | Cn1nnc(NC(=S)NC(=O)/C=C/c2ccco2)n1 | i | 8.0%
16 | CNC(=O)/C=C/c1cccc(C(F)(F)F)c1 | i | -13.8%
17 | CCc1c(-c2ccc(Cl)cc2)ncn1Cc1cccc(-c2ccccc2)c1 | ? | ?
18 | Cc1cc(/C=C2\SC(=S)NC2=O)c(C)n1-c1ccccc1 | -22.5% | 7.8%
19 | O=C(NCc1cccc(C(F)(F)F)c1)c1csc(COCCO)n1 | 55.3%[activator] | -4.0%
20 | CC(=O)N1N=C(c2cccs2)CC1c1ccc(C)o1 (stereo not drawn) | -7.0% | -1.0%
21 | CC[C@H](C)Cc1cn([C@@H](CCCCN)C(=O)NCCCCCCCCCCC(=O)N2CCNCC2)nn1 | i | -0.2%
22 | O=C(CNS(=O)(=O)c1ccccc1)OCC(=O)c1cccc([N+](=O)[O-])c1 | -9.8% | -8.5%
23 | CCN1CCN(CCCNC(=O)c2cnn(-c3ccc(OC)cc3)c2C2CCN(C(=O)OC(C)(C)C)CC2)CC1 | -7.4% | -3.1%
24 | COc1ccccc1-n1cc(C(=O)NCC(=O)N2CCN(Cc3ccccc3)CC2)c2ccccc2c1=O | -11.3% | -4.5%
25 | O=C(OCc1cn([C@H]2C[C@H](c3ccc(Cl)cc3)N(C(=O)C3CCCCC3)C[C@@H]2O)nn1)c1ccccc1 | 3.0% | -18.2%
26 | O=C(Cn1nnc2ccccc21)NNC(=O)c1ccccc1 | -22.8% | 2.2%
27 | CCNc1ccc(S(=O)(=O)N(C)C)cc1[N+](=O)[O-] | -9.6% | -5.7%
28 | Cc1ccc(Nc2nc(N)c([N+](=O)[O-])c(NCc3ccco3)n2)cc1 | -11.0% | ?
29 | O=C1OC(c2ccccc2)(c2ccc(O)cc2)c2ccccc21 (stereo not drawn) | -13.6% | -19.7%
30 | C/C(=N\Nc1nc2ccccc2[nH]1)c1ccc2c(c1)OCCO2 | -21.8% | -13.3%
31 | COc1ccc(CCC(=O)NNC(=O)c2ccccn2)cc1OC | ? | ?
32 | Cc1nn(-c2nc3ccccc3n2Cc2ccccc2)c2c1C(=O)CC(C)(C)C2 | / | -14.6%
33 | O=C(CN(C(=O)Cn1nnc(-c2cccs2)n1)c1ccc2c(c1)OCCO2)NCc1ccccc1 | -12.1% | -10.8%
34 | CC1CN(C(=O)COC(=O)c2cc([N+](=O)[O-])ccc2Cl)CC(C)O1 (stereo not drawn) | -2.2% | -10.2%
35 | O=c1c2cccnc2n(Cc2cccc(F)c2)c(=O)n1Cc1ccc(F)cc1 | ? | -17.2%
36 | Cc1ccc(NC(=O)C2CCCN(S(=O)(=O)c3ccc4[nH]c(=O)ccc4c3)C2)cc1C (stereo not drawn) | -20.2%&-16.4% | -14.5%&-9.6%
37 | CCOC(=O)c1sc(=N)n(-c2ccc(OC)cc2)c1C | -2.6% | -20.0%
38 | OCC1(Cc2ccccc2C(F)(F)F)CCN(Cc2ccncc2)CC1 | -18.2% | -13.9%
39 | CSc1nc(-c2ccc(Cl)cc2)nn1C(=O)c1ccccc1 | -20.6% | -4.5%
40 | Cc1ccc(N(CC(O)CN(C)C)S(=O)(=O)c2ccccc2)cc1 (stereo not drawn) | i | -20.4%

Overlap with the part before: 2 compounds; new compounds follow.
cpd | smiles | Vaccinia mCherry | VACV Venus inh
39 | CSc1nc(-c2ccc(Cl)cc2)nn1C(=O)c1ccccc1 | -20.6% | -4.5%
40 | Cc1ccc(N(CC(O)CN(C)C)S(=O)(=O)c2ccccc2)cc1 (stereo not drawn) | i | -20.4%
41 | CNc1nc(NCCOc2ccccc2Cl)c2sccc2n1 | i | ?
42 | CCOC(=O)c1cc(-c2ccco2)nc2c1c(C)nn2-c1ccccc1 | -14.6% | -4.2%
43 | CCc1ccc(CN(C)Cc2nc(Cc3ccc(OC)c(OC)c3)no2)nc1 | i | -0.3%
44 | O=C(NCc1ccc2c(c1)OCO2)c1ccc(Cl)c(S(=O)(=O)NCc2ccccc2)c1 | ? | -20.0%
45 | COc1ccc(CNCc2c(O)c(Cl)cc3c(C)c(C)c(=O)oc23)c(OC)c1 | -14.3% | -5.9%
46 | CCOC(=O)C1=C[C@@H](CC)N(S(=O)(=O)c2ccc(C)cc2)[C@H]1c1cccs1 | i | -22.5%
47 | CCOC(=O)[C@@H]1[C@H]2COc3ccccc3[C@@H]2N2C(=O)N(c3ccc(C(F)(F)F)cc3)C(=O)[C@]12C | -13.3% | -13.8%
48 | Cc1ccccc1NS(=O)(=O)c1cc(C(N)=O)ccc1C | -15.9% | 0.0%
49 | COc1cc(OC)c(OC)cc1CN1CCN(Cc2cccn2C)CC1 | -17.5% | -12.5%
50 | Cc1cc(C)c(C(=O)NC2CCCc3c2cnn3-c2ccc(C)c(C)c2)c(=O)[nH]1 (stereo not drawn) | -12.1% | -11.5%
51 | CC(C)Oc1ccc(CNC(=S)N/N=C/c2cccnc2)cc1 | / | ?
52 | COc1ccccc1CN1CC(C(=O)N2CCN(c3ccc(F)cc3)CC2)CC1=O (stereo not drawn) | -29.1% | -22.3%
53 | O=C([C@H](Cc1ccccc1)NS(=O)(=O)c1ccc(Cl)cc1)N1CC[C@@]2(O)CCCC[C@H]2C1 | / | ?
54 | CN(CCN1CCOCC1)Cc1nc(-c2ccc(Cl)cc2)no1 | i | 1.5%
55 | COc1ccc(/C=C/c2nc3ccccc3c(=O)n2-c2ccc(C)cc2)cc1O | -14.5% | -23.4%
56 | CCCCn1c(=O)c2oc3ccccc3c2n(Cc2ccc(OC)cc2)c1=O | -11.0% | -9.5%
57 | COc1ccc(C)cc1-n1c(-c2ccc(Cl)cc2)cc2c1CC(C)(C)CC2=O | -2.8% | -13.2%
58 | CCCCN(C=O)c1c(CC)nc2ccc(C(=O)N3CCN(C(=O)c4ccco4)CC3)cn12 | 12.0% | 0.4%
59 | CCc1cccc(C)c1NC(=O)CC1Oc2ccc(C)cc2NC1=O (stereo not drawn) | -16.7%&-11.8% | -11.2%&-9.5%
60 | BrCC1C[n+]2c(SCc3ccccc3)nc3sc4c(c3c2O1)CCCC4 (stereo not drawn) | ? | -28.9%
61 | CC(=O)c1c(C)nc2ccc(Br)cc2c1C(=O)O | i | 1.4%
62 | CCOc1cc(/C=C(\C#N)C(=O)Nc2ccccc2C)ccc1OCc1cc(=O)n2nc(CC)sc2n1 | -15.7% | -8.5%
63 | COc1cc(=O)n2c(c1C(=O)N(C)Cc1nonc1C)CCN(Cc1cc(F)ccc1F)CC2 | -4.5% | 8.0%
64 | C/C(CC(=O)NC12CC3CC(CC(C3)C1)C2)=N\NC(=O)c1cnccn1 | -6.7% | 1.6%
65 | CN(C(=O)c1ccc(NC(=O)C2CCCN(C(=O)OC(C)(C)C)C2)cc1)C1CCCC1 (stereo not drawn) | -24.5% | -16.2%
66 | CC(C)CC(C)NNC(=O)c1cc2ccccc2[nH]1 (stereo not drawn) | -9.3% | -6.4%
67 | CCOC(=O)C1CCN(S(=O)(=O)c2csc(C(N)=O)c2)CC1 | -17.7% | -18.6%
68 | O=C(NCC1CCOCC1)c1cc(COc2cccc(C(F)(F)F)c2)on1 | -5.9%[7.34 µM] | -25.1%[7.34 µM]
69 | Cc1ccc(S(=O)(=O)NC(C)(C)CSc2nncn2C)cc1 | -21.1% | -19.0%
70 | CCN(C(=O)COc1ccc(N(C)S(=O)(=O)c2ccc(NC(C)=O)cc2)cc1)C1CCCCC1 | ? | -28.1%
71 | O=C(Cn1ccc([N+](=O)[O-])n1)NCc1nc2ccccc2[nH]1 | -9.7% | -15.1%
72 | O=C(CCCSc1ccccc1)Nc1ccc(Cl)c(S(=O)(=O)N2CCOCC2)c1 | ? | -29.9%
73 | Cc1ccc(CN2C(=O)N/C(=C\c3cccn3-c3cccc(C(=O)O)c3)C2=O)cc1 | 3.4% | -0.4%
74 | CCOc1ccc(NC(=O)c2ccc(CNc3c(NC4CCCCC4)c(=O)c3=O)cc2)cc1 | 13.2% | -2.8%
75 | CCOc1ccc(CN2CCN(C/C=C/c3ccc(OC)cc3)CC2CCO)cc1 (stereo not drawn) | -6.3% | 0.1%
76 | Cc1cccc(C(=O)NC(=S)Nc2ccccc2C(=O)O)c1 | -13.7% | -4.3%
77 | O=C(Nc1cccc2ccccc12)c1cccc(F)c1 | -11.3% | -11.0%
78 | CN(/N=C/c1ccccc1Cl)c1ncc(Cl)cc1C(F)(F)F | i | -4.7%
79 | CC(=O)Nc1ccc(NC(=O)C23CC4CC(C2)CC(n2cnc(Br)n2)(C4)C3)cc1 | -21.2% | 2.7%
80 | CC(=C/C(=O)O)/C(=C/c1ccccc1)C(=O)O | -6.7% | -6.4%
81 | N#Cc1ccc(OCC(=O)Nc2ccc(S(=O)(=O)N3CCOCC3)cc2)cc1 | -0.2% | -15.0%
82 | COc1cc(CC(=O)OCC(=O)Nc2ccc3c(c2)OCO3)cc(OC)c1OC | i | -10.1%
83 | Cc1nc(SC(C)C(=O)NCc2ccc3c(c2)OCO3)nc(C)c1C (stereo not drawn) | -1.6% | -14.5%
84 | CC(OC(=O)C1CCC(=O)N1)C(=O)Nc1cc(Cl)cc(Cl)c1 (stereo not drawn) | -7.0% | -4.9%
85 | CC(C)(C)C(=O)c1c(N)[nH]c(C(=O)c2ccccc2)c1-c1ccc(Br)cc1 | 4.4% | 10.7%
86 | COc1cc(C(=O)NCCC(=O)NC2CCCCCCC2)cc(OC)c1OC | -12.0% | -11.1%
87 | CCCc1nn2c(=O)c(C(c3ccc(C)cc3)c3c(O)nc4sc(CCC)nn4c3=O)c(O)nc2s1 | -1.4% | -19.4%
88 | O=C(Cc1cccc(NC(=O)C2CCCN(C(=O)c3ccccc3)C2)c1)Nc1ccc(C(=O)N2CCCCC2)cc1 (stereo not drawn) | i | -10.2%
89 | CCOC(=O)Cc1c(C)nc(N)[nH]c1=O | i | 0.5%
90 | COCCn1c(SCC(=O)NC2CCCCC2C)nnc1-c1ccncc1 (stereo not drawn) | -15.2% | 11.3%
91 | CCOc1ccc(NS(=O)(=O)c2ccc(C(=O)N3CCCC(C)C3)cc2)cc1 (stereo not drawn) | -27.8% | -8.8%
92 | COc1ccc(NC(=O)Cn2c(=O)n(CCc3ccccc3)c(=O)c3sc4ccccc4c32)cc1 | -3.7% | 5.1%
93 | CNC(=O)NC(=O)CSc1nnc(-c2ccco2)n1Cc1ccccc1 | -20.0% | -17.2%
94 | Cn1c(SCC(=O)Nc2cc(S(=O)(=O)N3CCOCC3)ccc2N2CCOCC2)nnc1-c1ccncc1 | -14.7% | -10.7%
95 | Cc1ccc(CNC(=O)C(NS(=O)(=O)c2ccc3nc(C)sc3c2)C(C)C)cc1 (stereo not drawn) | 11.3% | -9.5%
96 | O=C(Nc1ncnc2sc3c(c12)CCC3)c1ccco1 | -14.1% | -2.9%

Remaining list, next part:
cpd | smiles | Vaccinia mCherry | VACV Venus inh
97 | CCN(CC)C(=O)c1ccc(COc2ccccc2Br)o1 | -15.7%[1.46 µM] | -19.9%
98 | Cc1nnc(N2CCN(c3cccc(C(F)(F)F)c3)CC2)c2c1nnn2Cc1ccccc1 | -21.8% | ?
99 | O=S(=O)(NCC1CCCO1)c1ccc2c(c1)OCCO2 (stereo not drawn) | -13.3% | 3.6%
100 | Cc1ccc(C(=O)N(C)CC(=O)Nc2ccc(F)c(F)c2F)o1 | i | 0.4%

Three of the compounds above, with two lines to a compound.
Results follow in this order: Vaccinia mCherry	VACV Venus inh
19) O=C(NCc1cccc(C(F)(F)F)c1)c1csc(COCCO)n1
  55.3%[activator]	-4.0%
34) CC1CN(C(=O)COC(=O)c2cc([N+](=O)[O-])ccc2Cl)CC(C)O1 (stereo not drawn)
  -2.2%	-10.2%
88) O=C(Cc1cccc(NC(=O)C2CCCN(C(=O)c3ccccc3)C2)c1)Nc1ccc(C(=O)N2CCCCC2)cc1 (stereo not drawn)
  i	-10.2%

High-throughput results (PubChem)
